From PubChem
T cell HTS – T cell immune modulation candidate; 2C CD8+ T cell-vesicle binding, flow cytometry; stronger effect = lower value; calls only at 7 µM; 0.068% of 330,000 active; AID 2052;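 active means response, share of CD8 T cells binding vesicles, and their 90th percentile fluorescence all below set limits, cut at about 80% in these data, passing the limit was not always enough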
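System: murine 2C transgenic CD8+ T lymphocytes; also added: QL9-loaded Drosophila micro-vesicles; times: binding 1.5 h at 37 °C; measured by: flow cytometry, PE anti-B7-1 (FL2) versus Alexa647 anti-CD8 (FL8), PFA-fixed; control set: Peptide-free naked vesicles (low) and QL9 vesicles with 0.7% DMSO vehicle (high)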
GPR55 LPI antagonism – GPR55 antagonists blocking LPI-driven arrestin recruitment, primary screen, imaging, U2OS, beta-arrestin-GFP, LPI agonist (AID 2013); 0.13% of 290,000 active; inhibition, % at 10 µM, or IC50 in µM where a hit was titrated; U2OS GPR55 beta-arrestin-GFP translocation imaging, LPI antagonism; higher % means a stronger effect;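 active means spots per cell inhibited over 60%, with over 100 cells counted and total cytoplasm intensity under 500,000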;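 further: U2OS cells stably carrying GPR55 and arrestin-GFP stimulated by 5 µM LPI near EC80; imaged beta-arrestin-GFP aggregate spots per cell after agonist stimulation; plate controls were LPI-stimulated DMSO wells for no effect and DMSO wells without LPI for full effect; some results filed as inactive read as strong as hits; confirmed hits need IC50 under 10 µM and bright autofluorescent wells are also inconclusive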
KOR beta-arrestin-1 – KOR antagonists, beta-arrestin recruitment, cell-based, luminescence, uHTS (AID 1778). KOR beta-arrestin recruitment, luminescence, antagonist mode; higher % means a stronger effect. inhibition, % at 10 µM; hits with a dose series show IC50 in µM. 0.091% of 290,000 active; in the data active means inhibition above about 50%; further: strong numbers were not always called active
GPR35 arrestin U2OS – inhibition of zaprinast-stimulated GPR35 beta-arrestin translocation – imaging, U2OS, beta-arrestin-GFP, zaprinast agonist, primary screen (AID 2058). 0.052% of 290,000 active. inhibition, % at 10 µM, or IC50 in µM where a hit was titrated. U2OS GPR35 beta-arrestin-GFP translocation imaging, zaprinast antagonism; higher % means a stronger effect;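 active means inhibition of at least 50% with at least 30 cells and total cytoplasm GFP at most 10,000,000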
KOR beta-arrestin-2 – KOR agonists, beta-arrestin recruitment, primary screen, cell-based, luminescence, uHTS (AID 1777). KOR beta-arrestin recruitment, luminescence; higher % means a stronger effect. one-dose activation, % at 10 µM; EC50 in µM for titrated hits. 0.02% of 280,000 active; in the data active means activation above about 50%, passing the limit was not always enough; further: a part of the inactive calls stands beside numbers as strong as those of hits
GPR55 beta-arrestin – GPR55 agonists via beta-arrestin recruitment, primary screen, imaging, U2OS cells, beta-arrestin-GFP redistribution (AID 1961) | U2OS GPR55 beta-arrestin-GFP redistribution imaging; higher % means a stronger effect | activation, % at 10 µM; hits with a dose series show EC50 in µM | 0.048% of 290,000 active;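 active means activation above 40% with more than 50 cells counted in the well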;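 further: U2OS osteosarcoma cells stably expressing GPR55 and beta-arrestin-GFP; plate controls were DMSO negative control for no effect and LPI positive control for full effect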
T cell HTS vesicle-bound % – second read-out of T cell HTS, no call of its own (marks repeat the call); double positive events, %; measured here: CD8+ vesicle-bound cell fraction;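 binding gate set so that unloaded-vesicle control wells show 10% double positive cells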
* = called active by the depositor; i = inactive; / = no result given. Some of the compounds tested; the hit share may differ from the screen's.

nr	Molecule	KOR beta-arrestin-2	GPR55 LPI antagonism	GPR55 beta-arrestin	T cell HTS vesicle-bound %
1	COc1ccc(C(=O)Nc2ccc(O)c3c(=O)cc(-c4cccc(Cl)c4)oc23)cc1	1.4%	5.1%	0.0%	62.3
2	O=C(O)/C=C/C(=O)O	/	/	/	15.2
3	CCCC(=O)c1ccc(O)cc1O	3.9%	4.4%	-0.1%	/
4	Clc1ccccc1C(c1ccccc1)(c1ccccc1)n1ccnc1	-4.4%	98.7%*	0.6%	20.6
5	c1ccc(-c2ccc(-c3cn4c(n3)CCC4)cc2)cc1	4.8%	3.7%	-0.1%	32.1
6	Oc1cc2c(c(Cl)c1O)CCNCC2c1ccccc1 (stereo not drawn)	/	/	/	33.9
7	N#Cc1ccc(OCC(O)CN2CCC(C(O)(c3ccccc3)c3ccccc3)CC2)cc1 (stereo not drawn)	2.4%	16.8%	0.6%	21.4
8	O=C(O)Cc1cc(I)c(Oc2ccc(O)c(I)c2)c(I)c1	-2.3%	6.9%	-0.1%	17.2
9	O=c1cc(-c2ccc(O)c(O)c2)oc2cc(O)cc(O)c12	0.0%	-13.4%	-0.1%	38.8

nr	KOR beta-arrestin-1	GPR35 arrestin U2OS	T cell HTS
1	-9.9%	-4.9%	i
2	/	/	i
3	32.6%	11.4%	/
4	43.8%	-7.1%	i
5	-29.1%	0.0%	i
6	/	/	i
7	-12.3%	-0.4%	i
8	17.3%	-5.7%	i
9	-44.8%	13.7%	i

Some of these compounds in order of molecular weight, rising:
nr	Molecule	KOR beta-arrestin-2	GPR55 LPI antagonism	GPR55 beta-arrestin	T cell HTS vesicle-bound %
2	O=C(O)/C=C/C(=O)O	/	/	/	15.2
3	CCCC(=O)c1ccc(O)cc1O	3.9%	4.4%	-0.1%	/
5	c1ccc(-c2ccc(-c3cn4c(n3)CCC4)cc2)cc1	4.8%	3.7%	-0.1%	32.1
9	O=c1cc(-c2ccc(O)c(O)c2)oc2cc(O)cc(O)c12	0.0%	-13.4%	-0.1%	38.8
6	Oc1cc2c(c(Cl)c1O)CCNCC2c1ccccc1 (stereo not drawn)	/	/	/	33.9
4	Clc1ccccc1C(c1ccccc1)(c1ccccc1)n1ccnc1	-4.4%	98.7%*	0.6%	20.6
1	COc1ccc(C(=O)Nc2ccc(O)c3c(=O)cc(-c4cccc(Cl)c4)oc23)cc1	1.4%	5.1%	0.0%	62.3
7	N#Cc1ccc(OCC(O)CN2CCC(C(O)(c3ccccc3)c3ccccc3)CC2)cc1 (stereo not drawn)	2.4%	16.8%	0.6%	21.4

nr	KOR beta-arrestin-1	GPR35 arrestin U2OS	T cell HTS
2	/	/	i
3	32.6%	11.4%	/
5	-29.1%	0.0%	i
9	-44.8%	13.7%	i
6	/	/	i
4	43.8%	-7.1%	i
1	-9.9%	-4.9%	i
7	-12.3%	-0.4%	i
